Source: PubChem BioAssay
Vaccinia Venus – qHTS for Stage-Specific Inhibitors of Vaccinia Orthopoxvirus: Venus Reporter Primary qHTS. Potency, µM (top dose mostly 36.5 µM), without a hit: at the highest dose activity change, negative = inhibition, most hits filed as inhibitors. Vaccinia virus Venus reporter expression, fluorescence. actives 0.46% (n = 330,000); active means well fitted inhibition curve with a large enough effect; inconclusive means small, poorly fitted or top-dose-only effect; inactive means no such curve, though single readings can be large or run the other way; tested in A549 cells; note: nearly all actives have a fitted effect of over 30% in size; inactives centre near -10
Vaccinia mCherry – qHTS for Stage-Specific Inhibitors of Vaccinia Orthopoxvirus: mCherry Reporter Primary qHTS. Vaccinia virus mCherry reporter infection, fluorescence; about a quarter of the inactives have no number. Potency, µM (top dose mostly 36.5 µM), without a hit: at the top dose activity change, negative = inhibition, hits mostly inhibitors. actives 0.63% (n = 310,000). AID 720579, 2013; active = well fitted inhibition curve with a large enough effect; inconclusive = small, poorly fitted or top-dose-only effect; inactive = no such curve, though single readings can be large or run the other way; tested in A549 cells; note: nearly all actives have a fitted effect of over 35% in size; inactives centre near -10
* hit, by the source's call; & = joins results of further samples; ! = repeats disagree; [ ] = remark or other dose. % is set by controls: 0 for no effect and ±100 for the full control effect; potency is the fitted concentration of half-maximal effect.

`O=C1C(=O)N(Cc2cccnc2)C(c2cccc([N+](=O)[O-])c2)/C1=C(/O)c1ccc2c(c1)OCO2` (stereo not given) gave Vaccinia Venus -16% and Vaccinia mCherry -14%.
Screening COc1ccc(Br)cc1/C=N/NC(=O)c1ccc(OC)c(OC)c1 returned Vaccinia Venus -2% and Vaccinia mCherry inactive.
O=C(COC(=O)CCSc1ccccc1)NCc1ccccc1 was read as Vaccinia Venus -5% and Vaccinia mCherry inactive.
`CCNc1sc(C(=O)c2cccs2)c(N)c1-c1nc2ccccc2s1` gave Vaccinia Venus -18% and Vaccinia mCherry -19%.
Screening CCCCC(=O)NNC(=O)N1c2ccccc2Sc2ccccc21 returned Vaccinia Venus -8% and Vaccinia mCherry inconclusive.
Cn1cc2ccc(N)cc2n1 was read as Vaccinia Venus 17% and Vaccinia mCherry 15%.
O=c1c2ccccc2[nH]c(=S)n1Cc1cccnc1 was read as Vaccinia Venus -9% and Vaccinia mCherry -11%.
For CCOC(=O)[C@]12Cc3cc(OC)ccc3[C@H]1N(Cc1ccccc1)C(=O)c1cc(F)c(F)cc12 the results were Vaccinia Venus -26%&-13% and Vaccinia mCherry inactive.
`CCCNC(=O)Cc1c(OC)ccc2cc(Br)ccc12` gave Vaccinia Venus -15% and Vaccinia mCherry inactive.
CCS(=O)(=O)c1ccc2oc(Nc3cc(Cl)ccc3OC)nc2c1 was read as Vaccinia Venus -20% and Vaccinia mCherry inactive.

The closing two compounds of the part above are carried over, then new ones follow.
`CCCNC(=O)Cc1c(OC)ccc2cc(Br)ccc12` gave Vaccinia Venus -15% and Vaccinia mCherry inactive.
CCS(=O)(=O)c1ccc2oc(Nc3cc(Cl)ccc3OC)nc2c1 was read as Vaccinia Venus -20% and Vaccinia mCherry inactive.
`O=C(Nc1ccc(-c2nc3ccccc3[nH]2)cc1)c1c(F)c(F)c(F)c(F)c1F` gave Vaccinia Venus -21% and Vaccinia mCherry -24%.
Screening CCC1(CC)C(=O)NC(=O)N(c2ccccc2)C1=O returned Vaccinia Venus inconclusive and Vaccinia mCherry inconclusive.
Cc1ccc2c(=O)oc(N(C)C)nc2c1 was read as Vaccinia Venus -8% and Vaccinia mCherry -12%.
COc1cccc(NC(=O)CCN2CCN(C)CC2)c1 was read as Vaccinia Venus -1% and Vaccinia mCherry -14%.
Cc1ccc(NC(=O)CCC(=O)c2cc(C)sc2C)nc1 was read as Vaccinia Venus -3% and Vaccinia mCherry 0%.
COC(=O)c1cc2n(n1)CCN(Cc1ccccc1F)C2=O was read as Vaccinia Venus -12% and Vaccinia mCherry -16%.
For CC(C)=C1SC(N2CCN(c3ccc(C)c(Cl)c3)CC2)=NC1=O the results were Vaccinia Venus -5% and Vaccinia mCherry -7%.
Screening CC(=O)C1=C(C)NC(SCC(=O)c2ccc(F)cc2)=C(C#N)C1CC(C)C (stereo not given) returned Vaccinia Venus -17% and Vaccinia mCherry inactive.
`COc1ccc(OC)c(C(=O)/C=C/c2cccnc2)c1` gave Vaccinia Venus -25% and Vaccinia mCherry inconclusive.
`C=CCC(CC=C)(CNC(=O)C(=O)Nc1ccc(C)cc1)c1ccccc1` gave Vaccinia Venus -22% and Vaccinia mCherry -6%.
O=C(O)C1=CC[C@@H](c2ccc(Cl)cc2)N(S(=O)(=O)c2ccc(Cl)cc2)[C@H]1c1ccc(F)cc1 was read as Vaccinia Venus -3% and Vaccinia mCherry inactive.
`O=C(Nc1ccc2c(c1)OCCO2)C1c2ccccc2OCC(=O)N1Cc1ccccc1` (stereo not given) gave Vaccinia Venus 5% and Vaccinia mCherry -7%.
Screening CN(C)C(=O)COc1ccccc1C(=O)OCC(=O)N(CCC#N)c1ccccc1 returned Vaccinia Venus -15% and Vaccinia mCherry -7%.
Screening CCOC(=O)c1cc2c(=O)n3ccccc3nc2n(C(C)C)c1=NC(=O)c1c(-c2ccccc2Cl)noc1C returned Vaccinia Venus 7% and Vaccinia mCherry 5%.
O=C(NC(O)C(=O)c1ccccc1)c1cccs1 (stereo not given) was read as Vaccinia Venus -11% and Vaccinia mCherry 13%.
`CCOC(=O)C1CCN(C(=O)c2ccccc2NC(=O)c2ccc(Br)cc2)CC1` gave Vaccinia Venus -10% and Vaccinia mCherry -8%.
`COc1cccc(NC(=O)CCN2C(=O)c3ccccc3Sc3ncccc32)c1` gave Vaccinia Venus -4%[7.34 µM] and Vaccinia mCherry -12%[7.34 µM].
CCN(CC)C(=O)C1=C(C)N(Cc2ccc(F)cc2)C(=O)C(CC(=O)NCc2ccco2)C1 (stereo not given) was read as Vaccinia Venus -8% and Vaccinia mCherry -13%.
Screening COC(=O)c1ccccc1NC(=O)c1cnc2sccn2c1=O returned Vaccinia Venus 4% and Vaccinia mCherry 7%.
For CC[n+]1c(C)cc(C)n1-c1ccccc1 the results were Vaccinia Venus -15% and Vaccinia mCherry -9%.
Screening O=C(NCc1ccc2c(c1)OCO2)c1ccc2c(c1)OCCO2 returned Vaccinia Venus -18% and Vaccinia mCherry -11%.
`O=c1cc(CN2CCN(c3cccc(Cl)c3)CC2)c2cc(O)c(-c3ccccc3)cc2o1` gave Vaccinia Venus -23%.
CN(Cc1ccccc1)C(=C(Cl)Cl)C(=C1NCCN1)[N+](=O)[O-] was read as Vaccinia Venus 7% and Vaccinia mCherry 0%.
Screening O=S(=O)(c1ccc2ccccc2c1)N1CCN(S(=O)(=O)N2CCOCC2)CC1 returned Vaccinia Venus -15%.
For Cc1ccc(C)c(OCc2n[nH]c(=S)o2)c1 the results were Vaccinia Venus -16% and Vaccinia mCherry -8%.
For Cc1n[nH]c(=O)c2c(NC(=O)CSc3c(Cl)cccc3Cl)oc(C)c12 the results were Vaccinia Venus -20% and Vaccinia mCherry -30%.
`COc1ccccc1C=Cc1ccnc2ccccc12` gave Vaccinia Venus -11% and Vaccinia mCherry -22%.
Screening Cc1cc(C(=O)CSc2nnc(-c3ccco3)o2)c(C)n1CC1COc2ccccc2O1 (stereo not given) returned Vaccinia Venus -24%.
CCCC(C(=O)n1nc(C)cc1C)C(NS(=O)(=O)c1ccc(C)cc1)c1ccccc1 (stereo not given) was read as Vaccinia Venus -33%.
O=C(CSc1nc2ncc(Cl)cc2[nH]1)c1c[nH]c2ccccc12 was read as Vaccinia Venus -17% and Vaccinia mCherry inactive.
N#CC1=C(N)SC(N)=C(C#N)C1c1ccnc2ccccc12 was read as Vaccinia Venus 33%[activator] and Vaccinia mCherry inactive.
For CCCCOc1ccc(S(=O)(=O)Nc2ccc(-c3ccc(N4CCC(C)CC4)nn3)cc2)cc1 the results were Vaccinia Venus -13% and Vaccinia mCherry -20%.
Screening CNC(=S)NN=C(C)CCCC(C)=NNC(=S)NC returned Vaccinia Venus -5% and Vaccinia mCherry inactive.
Screening COc1ccc(N(Cc2cc3ccccc3[nH]c2=O)S(=O)(=O)c2ccccc2)cc1 returned Vaccinia Venus -7% and Vaccinia mCherry -11%.
Screening CCc1cc2c(=O)c(-c3ccc4c(c3)OCCO4)c(C)oc2cc1OS(C)(=O)=O returned Vaccinia Venus inconclusive and Vaccinia mCherry inconclusive.
CC(C)(C)CN1C(N)=NC[C@@H]1c1ccccc1 was read as Vaccinia Venus -18% and Vaccinia mCherry inactive.
`COc1ccc(NC(=O)C2CCN(S(=O)(=O)c3cccc(-c4noc(C)n4)c3)CC2)cc1OC` gave Vaccinia Venus -4% and Vaccinia mCherry 2%.
CC(C)C[C@H]1COc2cccc(N3CCN(C)CC3)c2S(=O)(=O)N1 was read as Vaccinia Venus 3% and Vaccinia mCherry 6%.
For COc1ccc(NC(=O)Cn2nnc(C(=O)NCc3cccs3)c2N)cc1OC the results were Vaccinia Venus -12%[7.34 µM] and Vaccinia mCherry inactive[7.34 µM].
O=C(Nc1ccccc1OC(F)F)c1ccc(Br)o1 was read as Vaccinia Venus 18% and Vaccinia mCherry -9%.

4 entries picked at random from those above, as already listed:
CC(C)(C)CN1C(N)=NC[C@@H]1c1ccccc1 was read as Vaccinia Venus -18% and Vaccinia mCherry inactive.
Screening COc1ccc(N(Cc2cc3ccccc3[nH]c2=O)S(=O)(=O)c2ccccc2)cc1 returned Vaccinia Venus -7% and Vaccinia mCherry -11%.
For CCCCOc1ccc(S(=O)(=O)Nc2ccc(-c3ccc(N4CCC(C)CC4)nn3)cc2)cc1 the results were Vaccinia Venus -13% and Vaccinia mCherry -20%.
For COc1ccc(NC(=O)Cn2nnc(C(=O)NCc3cccs3)c2N)cc1OC the results were Vaccinia Venus -12%[7.34 µM] and Vaccinia mCherry inactive[7.34 µM].

Carrying on.
CCC(CC)C(=O)Nc1nnc(S(=O)(=O)N2CCCc3ccccc32)s1 was read as Vaccinia Venus -8% and Vaccinia mCherry inactive.
Screening COCCNC(=O)CN(C(=O)CCC(=O)Nc1nccs1)c1ccccc1OC returned Vaccinia Venus -7% and Vaccinia mCherry -6%.
Cc1ccc(-c2csc(NC(=O)c3cccc(C)c3)c2C(=O)O)cc1 was read as Vaccinia Venus inconclusive and Vaccinia mCherry inconclusive.
CC(NC(=O)c1cccs1)C(=O)NC1=NCCS1 (stereo not given) was read as Vaccinia Venus -4% and Vaccinia mCherry -2%.
Cc1c(Br)cccc1NC(=O)c1sccc1-n1cccc1 was read as Vaccinia Venus 7% and Vaccinia mCherry 0%.
For c1ccc(CCNc2nnnn2-c2ccccc2)cc1 the results were Vaccinia Venus -15%.
Screening CN1c2ccccc2-c2nc3ccccc3n2C1c1ccccn1 (stereo not given) returned Vaccinia Venus -13% and Vaccinia mCherry -1%.
`CC(C)(C)c1ccc(C(=O)N2CCN(CCNC(=O)C(=O)Nc3ccc(F)cc3)CC2)cc1` gave Vaccinia Venus -22% and Vaccinia mCherry -7%.
For CCC12CN3CC(C)(CN(C1)C3c1c(C)[nH]c3ccccc13)C2=O (stereo not given) the results were Vaccinia Venus -5% and Vaccinia mCherry 4%.
CC(C)(C)c1cc(C=C(C#N)C#N)cc(C(C)(C)C)c1O was read as Vaccinia Venus inconclusive and Vaccinia mCherry 1µM*!.
O=C(c1ccc(NS(=O)(=O)c2ccc(F)cc2)cc1)N1CCN(c2ccccc2O)CC1 was read as Vaccinia Venus -8% and Vaccinia mCherry -18%.
Screening Cc1nnc(SCc2ccccc2Cl)n(N)c1=O returned Vaccinia Venus -18% and Vaccinia mCherry inactive.
Screening CCC1(CC)NC(=O)N(CC(=O)OCC(=O)NC(=O)c2ccccc2OC)C1=O returned Vaccinia Venus 2% and Vaccinia mCherry inactive.
For O=C(CN1C(=O)CSc2ncccc21)Nc1cccc(Cl)c1 the results were Vaccinia Venus -26% and Vaccinia mCherry -28%.
CN(CCO)C(=O)c1cn(C2CCN(Cc3ccc(C(F)(F)F)cc3)CC2)nn1 was read as Vaccinia Venus -12% and Vaccinia mCherry -10%.
Cc1ccccc1C(=O)Nc1sc2c(c1C(=O)N1CCC(C)CC1)CCCC2 was read as Vaccinia Venus -1% and Vaccinia mCherry -14%.
`Cc1ccc(NC(=O)CSc2nc3c(oc4ccccc43)c(=O)n2Cc2ccco2)cc1F` gave Vaccinia Venus -11% and Vaccinia mCherry -9%.
For Cc1ccc(C(=O)OCC(=O)Nc2ccccc2C(F)(F)F)cc1S(=O)(=O)N1CCOCC1 the results were Vaccinia Venus -4% and Vaccinia mCherry -5%.
For NC(N)=N/N=C/c1ccccc1 the results were Vaccinia Venus -12% and Vaccinia mCherry -11%.
For CNC(=O)c1cc(-c2cccs2)on1 the results were Vaccinia Venus inconclusive and Vaccinia mCherry -26%.
Screening CC(=O)c1ccc2c(c1)N(Cc1ccc3ccccc3c1)C(=O)C(C)S2 (stereo not given) returned Vaccinia Venus -23% and Vaccinia mCherry inconclusive.
Screening C/C(=N\NC(=O)COc1cc(C)cc(C)c1)c1ccc(N2CCOCC2)cc1 returned Vaccinia Venus -19% and Vaccinia mCherry -23%.
Screening CC1=CC2C(C(C)C)CCC(C)(O)C2CC1 (stereo not given) returned Vaccinia Venus 0% and Vaccinia mCherry inactive.
Screening CC1(C)Cc2cccc(OCC(=O)OCc3nnc(-c4ccccc4)o3)c2O1 returned Vaccinia Venus 4% and Vaccinia mCherry -11%.
C#CCOc1ccccc1C(N)=O was read as Vaccinia Venus -5% and Vaccinia mCherry -1%.
`CC(C)(C)NC(=O)CSc1nnc(-c2ccccn2)n1Cc1ccccc1` gave Vaccinia Venus -9% and Vaccinia mCherry -9%.
Screening COc1cc(/C=N\NC(=O)CC(=O)NCCc2ccccc2)ccc1O returned Vaccinia Venus -5% and Vaccinia mCherry -12%.
Screening CC(=O)Nc1sc2c(c1C(c1cccs1)N1CCOCC1)CCCC2 (stereo not given) returned Vaccinia Venus -12%.
For O=C(CN1CCCN(S(=O)(=O)c2ccc(F)cc2)CC1)Nc1cccc(F)c1 the results were Vaccinia Venus -5% and Vaccinia mCherry -9%.
Screening CCOc1ccc(CN(C(=O)c2cc(=O)c3cc(Cl)ccc3o2)C2CCS(=O)(=O)C2)cc1 (stereo not given) returned Vaccinia Venus -9% and Vaccinia mCherry 6%.
`c1csc(-c2ncc3ccccn23)c1` gave Vaccinia Venus -25%.
`CN(C)CCC1c2ccc(Cl)cc2CCc2cccnc21` (stereo not given) (tested in a mixture with another compound) gave Vaccinia Venus -16% and Vaccinia mCherry inconclusive.
For Nc1c(C(=O)Nc2ccc(Cl)cc2)oc2ccccc12 the results were Vaccinia Venus inconclusive and Vaccinia mCherry inconclusive.
For Cc1ccc(OCC(=O)Nc2ccc3oc(=O)ccc3c2)cc1C the results were Vaccinia Venus -16% and Vaccinia mCherry -18%.
`COc1ccccc1CNC(=O)CCNS(=O)(=O)c1ccc2c(c1)CC(C)N2C(C)=O` (stereo not given) gave Vaccinia Venus 1%[7.34 µM] and Vaccinia mCherry -8%[7.34 µM].
